AmpC nodet inh – Promiscuous and Specific Inhibitors of AmpC Beta-Lactamase (assay without detergent); AmpC nitrocefin hydrolysis, absorbance 480 nm, no detergent; potencies from a single point are estimates; Potency, µM (doses to about 28.7 µM), for the others: at the top dose activity change, negative = inhibition; 1.8% of 71,000 active; AID 585, 2007; active = falling curve, for most hits resting on a single point; inconclusive = weak or doubtful change; inactive = flat or rising curve; note: % of control where 0% means no effect; about half of the hits show no inhibition at the top dose; a quarter of the inactives give rising signals
Target sequence (P00811 whole entry, looked up): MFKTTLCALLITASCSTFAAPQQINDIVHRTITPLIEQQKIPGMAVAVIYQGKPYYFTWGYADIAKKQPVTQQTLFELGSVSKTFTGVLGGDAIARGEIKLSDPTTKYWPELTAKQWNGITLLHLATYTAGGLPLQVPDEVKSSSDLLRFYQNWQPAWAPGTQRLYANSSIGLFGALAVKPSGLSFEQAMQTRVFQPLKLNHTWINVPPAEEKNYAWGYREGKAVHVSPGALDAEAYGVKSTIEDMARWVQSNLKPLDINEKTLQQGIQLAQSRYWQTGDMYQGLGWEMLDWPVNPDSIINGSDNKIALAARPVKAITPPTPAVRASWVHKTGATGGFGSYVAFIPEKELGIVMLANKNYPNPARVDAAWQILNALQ
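Enzyme, pH 7.0 phosphate. Compound titrations were pre-incubated with AmpC for 15 min at room temperature before nitrocefin (stock 800 uM) addition; product formation was recorded at 480 nm every 20 s for 4 min.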
* marks the source's active call; other numbers are inactive results; [ ] = another dose, or the depositor's remark. Potency is the fitted concentration of half-maximal effect. Only part of the results is shown; rates above refer to the full screens.

SMILES | AmpC nodet inh
O=C(CSc1nc(-c2ccccc2)cc(=O)[nH]1)Nc1ccccn1 | -14%
Cc1ccccc1N1CCN(Cc2cccc(C(=O)O)c2)CC1 | 3%
CCc1nnc(NC(=O)CSc2nnc(C)n2CC2CCCO2)s1 (stereo not drawn) | -7%
Cc1cc2c(cc1C)/C(=C\C(N)=O)NC(C)(C)C2 | 13%
CCN1C(=O)CC(N2CCN(c3ccc(Cl)cc3)CC2)C1=O (stereo not drawn) | 39%
CC1=C(CC[C@H](C)CO)O[C@@H]2C[C@@H]3[C@H]4CC[C@H]5C[C@@H](O)CC[C@]5(C)[C@@H]4CC(=O)[C@@]3(C)[C@@H]12 | 45%[5.75 µM]
CN1CCN(CC(=O)Nc2ccc(Cl)cc2C(=O)c2ccccc2)CC1 | 51%
COCN(C#N)c1nc(OC)nc(OC)n1 | -4%
O=C(CN(C(=O)CCC(=O)Nc1nccs1)c1ccc(F)cc1)NCC1CCCO1 (stereo not drawn) | 16%
C[C@H](OP(=O)(O)O)[C@H](N)C(=O)O | -9%[5.75 µM]
CCOC(=O)c1oc2c(O)c(O)ccc2c(=O)c1-c1nncn1-c1ccccc1 | -7%
O=C(Nc1ccccn1)c1cccc(S(=O)(=O)N2CCOCC2)c1 | 6%
CCCCC(CC)C(=O)Nc1ccc(Cl)cn1 (stereo not drawn) | -14%
CCN1CCN(c2oc(COc3ccc(-c4ccccc4)cc3)nc2C#N)CC1 | 144%
CCOC(=O)C(Cc1c[nH]c2ccccc12)NC(=O)c1ccco1 (stereo not drawn) | 13%

The last two entries of the part before come first, to join the parts.
SMILES | AmpC nodet inh
CCN1CCN(c2oc(COc3ccc(-c4ccccc4)cc3)nc2C#N)CC1 | 144%
CCOC(=O)C(Cc1c[nH]c2ccccc12)NC(=O)c1ccco1 (stereo not drawn) | 13%
COc1ccc(N2CCN(Cc3nc4c(c(=O)n(C)c(=O)n4C)n3CCc3ccccc3)CC2)cc1 | 0%
O=C(Nc1sc2c(c1C(=O)NCc1ccco1)CCCC2)c1ccc2c(c1)OCO2 | -5%
Cc1ccccc1-c1cc(N(C)C)ncn1 | -1%
Cc1cc(N)c(NC2=CC(=O)CC(C)(C)C2)cc1C | 14%
O=C(NCC1CCCO1)c1ccc(COCC(F)(F)C(F)F)cc1 (stereo not drawn) | 14%
CC1(C)CC2(CCO1)NCCN1C(=O)CSC12 (stereo not drawn) | -8%
COc1cccc(-c2nccc(N(C)Cc3ccco3)n2)c1 | 57%
COc1cccc(OCc2nc3c4cnn(-c5ccccc5)c4ncn3n2)c1 | -20%
Oc1c(Cl)cc(C(c2cc(Cl)c(O)c(Cl)c2)C(c2cc(Cl)c(O)c(Cl)c2)c2cc(Cl)c(O)c(Cl)c2)cc1Cl | -26%[5.75 µM]
COc1ccc(OC)c2[nH]c(=O)c(CCNS(=O)(=O)c3ccccc3)cc12 | 39%
COc1ccccc1CNc1cc(-c2cccnc2)ncn1 | 13%
CCn1c(SCC(=O)c2ccc3c(c2)OCCO3)nnc1C(C)C | 20%
COc1ccc2c(c1)CCc1c(C(=O)NCCN3CCOCC3)noc1-2 | 72%
COC(=O)c1c(C)oc2ccc(OC(=O)c3cccs3)cc12 | 2%
COc1ccc(-c2nc(CSCC(=O)N3CCN(C4CCCCC4)CC3)c(C)o2)cc1OC | 118%

6 compounds from above, arranged by count of non-hydrogen atoms, smallest number first.
SMILES | AmpC nodet inh
Cc1ccccc1-c1cc(N(C)C)ncn1 | -1%
COc1cccc(-c2nccc(N(C)Cc3ccco3)n2)c1 | 57%
CCn1c(SCC(=O)c2ccc3c(c2)OCCO3)nnc1C(C)C | 20%
COc1ccc2c(c1)CCc1c(C(=O)NCCN3CCOCC3)noc1-2 | 72%
COc1ccc(N2CCN(Cc3nc4c(c(=O)n(C)c(=O)n4C)n3CCc3ccccc3)CC2)cc1 | 0%
Oc1c(Cl)cc(C(c2cc(Cl)c(O)c(Cl)c2)C(c2cc(Cl)c(O)c(Cl)c2)c2cc(Cl)c(O)c(Cl)c2)cc1Cl | -26%[5.75 µM]

(cont.)
SMILES | AmpC nodet inh
Cn1cccc1C(=O)N1CCC[C@@]2(CCN(c3ccncc3)C2)C1 | -2%
COc1ccccc1CN1CCCCC1c1cccnc1 (stereo not drawn) | -5%
OC(COCc1ccc(Cl)cc1)CN1CCN(CC(O)COCc2ccc(Cl)cc2)CC1 (stereo not drawn) | 137%
CC(=O)NC1(c2ccccc2)CCN(C(=O)N2CCOCC2)CC1 | 4%
CCc1ccccc1N(CC(=O)OC)S(C)(=O)=O | 15%
CCN1C(=S)SC(=O)C1=C1C=C(C)N(Cc2ccco2)C(C)=C1 | 68%
COc1ccc(CCC(=O)c2c(O)cc(O[C@@H]3O[C@H](CO)[C@@H](O)[C@H](O)[C@H]3O[C@@H]3O[C@@H](C)[C@H](O)[C@@H](O)[C@H]3O)cc2O)cc1O | 62%
O=C(Nc1ccc2c(c1)OCCO2)C1CCCN1S(=O)(=O)c1cccc2cccnc12 (stereo not drawn) | 11%
Cc1sc2nc(SCc3nnc(-c4cccs4)o3)n(C3CCCC3)c(=O)c2c1C | 2%
Cc1ccc(SCc2[nH]nc3c2C(c2cccnc2)C(C#N)=C(N)O3)cc1 (stereo not drawn) | 4%
Cc1nc2cnc(Oc3cccc(Cl)c3)nc2n(CCC#N)c1=O | 26%
Cc1ccccc1-c1nc(CS(=O)(=O)CC(=O)NCCN2CCOCC2)c(C)o1 | 54%
Cc1cc2c(c(=O)o1)C1(C(=O)N(C)c3ccccc31)C(C#N)=C(N)O2 (stereo not drawn) | 0%
O=C(c1cc2ccccc2o1)n1nnc2ccccc21 | -14%
O=C1CC(c2ccco2)Cc2nc(NCC3CCCO3)ncc21 (stereo not drawn) | 13%
C=CCOc1ccc(C2N3CC4(C)CN2CC(CCC)(C3)C4=O)cc1 (stereo not drawn) | 62%
CC(C)OC(=O)CSc1nnc(-c2ccc(O)cc2)n1Cc1ccccc1 | 48%
CC(C)Cc1cc(C(=O)O)n[nH]1 | 0%
O=C(Cc1ccc(S(=O)(=O)N2CCOCC2)s1)Nc1ccc2c(c1)CCC2 | 4%
CCn1c(-c2cc(OC)c(OC)c(OC)c2)n[nH]c1=S | 4%
CCCC1C2CN(C(C)C)CC=C2C(C#N)=C(N)C1(C#N)C#N (stereo not drawn) | -3%
Cc1ccc(S(=O)(=O)NC2=NCN(CCN3CCOCC3)CN2)cc1 | -12%
CC(=O)OCC(=O)[C@@]1(OC(C)=O)[C@H](C)C[C@H]2[C@@H]3C[C@H](F)C4=CC(=O)C=C[C@@]4(C)[C@]3(F)[C@H](O)C[C@@]21C | 112%[12.8 µM]
O=c1c(N2CCOCC2)nsnc1N1CCOCC1 | 4%
CCCC(=O)Nc1nn(C)c2nc3cc(C)ccc3cc12 | 61%
COc1cccc(CN(C(=O)c2ccco2)C(C(=O)NC2CCCC2)c2cccnc2)c1 (stereo not drawn) | 33%
CCCn1c(=O)c2ccccc2n2c(SCN3C(=O)c4ccccc4C3=O)nnc12 | 2%
CCN(CC)C(=O)C(C)N(C#N)c1nc(NC(C)C)nc(NC(C)C)n1 (stereo not drawn) | 39%
CC(C)(C)c1[nH]nc2c1C(Cc1ccccc1)C(C#N)=C(N)O2 (stereo not drawn) | -6%
CCCn1nc(C(=O)NCCN2CCOCC2)c2ccccc2c1=O | 6%
COc1ccc(C(=O)N2CCCCC2)cc1S(=O)(=O)Nc1ccccc1 | 20%
O=c1c2cccc3c(N4CCOCC4)ccc(c32)c2nc3ccccc3n12 | 23%
COc1ccc(N2CCN(Cc3cc(=O)oc4cc(C)c(Cl)c(C)c34)CC2)cc1 | 33%
CCOC(=O)C1CCN(C(=O)CC(NS(=O)(=O)c2ccc(OC)cc2)C(C)C)CC1 (stereo not drawn) | 60%
COc1ccc(C(=O)NC2CCN(C(=O)NC3CCCCC3)CC2)cc1 | 12%
CSc1ccccc1NC(=O)c1cc(-c2cccs2)on1 | -7%
CC1CC(C(O)c2ccccn2)C(=O)C(C(O)c2ccccn2)C1 (stereo not drawn) | 2%
Cc1noc(C)c1S(=O)(=O)N1CCC(C(=O)NCCN2CCC(C)CC2)CC1 | -4%
COc1ccc(N2C(=O)CSC23C(=O)Nc2ccccc23)cc1OC (stereo not drawn) | -1%
COc1ccc(N(C(=O)c2ccco2)C(C(=O)NC2CCCC2)c2ccc(N(C)C)cc2)cc1OC (stereo not drawn) | 88%
N#Cc1ccc(CSCC(=O)O)cc1 | -5%
COc1cc2nc(SCC(N)=O)n(CCC3=CCCCC3)c(=O)c2cc1OC | 46%
CC(c1ccccc1)N1CC(C(=O)NC2CCCC2)CC1=O (stereo not drawn) | 6%
Cc1ccc(/C=c2\sc3nc(-c4ccco4)nn3c2=O)o1 | 28%
CN(C)C(CNC(=O)C1CCCN(C(=O)c2ccc(Cl)cc2)C1)c1ccco1 (stereo not drawn) | 28%
O=c1c2ccccc2sn1-c1cc(S(=O)(=O)N2CCOCC2)ccc1N1CCOCC1 | 99%
COc1ccc(N(CC(=O)NC2CCCC2)C(=O)Cn2nnc(-c3ccc(C)cc3)n2)cc1 | 82%
CCOc1ccccc1N(C(=O)c1snc(C(N)=O)c1N)C(C(=O)NC1CCCC1)c1ccco1 (stereo not drawn) | 26%
CCCCNC(=O)C1COc2ccccc2O1 (stereo not drawn) | -2%
Cn1c2ccccc2c2c(C(=O)O)cn(C3CCCC3)c(=O)c21 | 4%
CSc1nc(C)cc(Oc2ccc(=O)n(C)n2)n1 | -7%
CC(C)(C)NC(=O)C(c1ccco1)N(C(=O)c1ccc(CN2CCOCC2)o1)c1ccccc1 (stereo not drawn) | 84%
CCOC(=O)c1c(C)n(C)c2ccc(OC)c(NS(=O)(=O)c3ccc(Cl)s3)c12 | 21%
COc1cc(S(=O)(=O)n2nnc3ccccc32)c(OC)cc1Cl | 4%
Cc1ccc(OCc2nnc(NC(=O)Cc3cccs3)s2)cc1 | -19%
O=C(CC(c1ccco1)C1CCCCC1=O)c1ccco1 (stereo not drawn) | 8%
Cc1cc(C(C)(C)C)oc1C(=O)Nc1ccc(CC(=O)O)cc1 | 1%
Cc1ccc(-c2nnc3sc(-c4ccncc4)nn23)cc1 | 25%
ClC(=Nc1cccc2ccccc12)N(c1ccccc1)c1ccccc1 | -4%[5.75 µM]
O=S(=O)(NC1CCCCC1)c1ccc(Br)cc1 | -23%

Of the compounds above, 7 have a thiophene ring, fused or not.
SMILES | AmpC nodet inh
O=C(Nc1sc2c(c1C(=O)NCc1ccco1)CCCC2)c1ccc2c(c1)OCO2 | -5%
COC(=O)c1c(C)oc2ccc(OC(=O)c3cccs3)cc12 | 2%
Cc1sc2nc(SCc3nnc(-c4cccs4)o3)n(C3CCCC3)c(=O)c2c1C | 2%
O=C(Cc1ccc(S(=O)(=O)N2CCOCC2)s1)Nc1ccc2c(c1)CCC2 | 4%
CSc1ccccc1NC(=O)c1cc(-c2cccs2)on1 | -7%
CCOC(=O)c1c(C)n(C)c2ccc(OC)c(NS(=O)(=O)c3ccc(Cl)s3)c12 | 21%
Cc1ccc(OCc2nnc(NC(=O)Cc3cccs3)s2)cc1 | -19%

Next compounds follow.
SMILES | AmpC nodet inh
O=C(c1cccc2c1-c1ccccc1/C2=N/O)N1CCCCC1 | -8%
Cc1cc(C)nc(N2CCCC(C(=O)Nc3nc4ccc(S(C)(=O)=O)cc4s3)C2)n1 (stereo not drawn) | 84%
COCc1[nH]nc2c1C(c1ccccc1OC)C(C#N)=C(N)O2 (stereo not drawn) | 0%
CCOC(=O)N1CCN(c2ncnc3c2oc2nc(C)c4c(c23)CC(C)(C)OC4)CC1 | 76%
COC(=O)C1=C(N)Oc2cc(C)n(CC3CCCO3)c(=O)c2C1c1ccccc1OC (stereo not drawn) | 21%
O=[n+]1c2c(n([O-])c3cc(F)c(N4CCCC4)cc31)CCC2 | 8%
CC(=O)Nc1cccc(NC(=O)Nc2ccc(C(C)=O)cc2)c1 | -9%
CC(C)C(=O)NC(C)C(c1cccs1)N1CCN(c2ccccc2)CC1 (stereo not drawn) | 52%
c1ccc(Cn2ccnc2-c2ccco2)cc1 | -6%
Cc1nnc2n(C3CCCCC3)c(=O)c3c4c(sc3n12)CCC4 | 11%
Cc1cc(Br)c(S(=O)(=O)NCCN2CCOCC2)cc1C | 12%
CCOc1ccc2nc(NCCNC(=O)CC)c(C#N)cc2c1 | -11%
CC(O)[C@H](NC(=O)C1(c2ccccc2)CCN(C(=O)OC(C)(C)C)CC1)C(=O)O (stereo partly drawn) | 17%
COc1ccccc1CNS(=O)(=O)c1ccc2[nH]cc(C(=O)O)c(=O)c2c1 | -11%
CCCc1ccc(-c2ccc(F)c(N)c2)nc1 | 20%
CC(C)(C)OC(=O)N1CCC(C(=O)N[C@H](Cc2ccccc2)C(=O)O)CC1 | 12%
CC1CCCCN1CCNc1nc(=S)[nH]c2ccccc12 (stereo not drawn) | -13%
CC1CCC(C(=O)NC(C(=O)N2CCC(N3CCCCC3)CC2)C(C)C)CC1 (stereo not drawn) | -10%
OCc1nn2c(c1Br)NC(c1ccccc1)CC2C(F)(F)F (stereo not drawn) | 28%
O=C(Nc1ccccc1)N1CC[C@@]2(CCCN(C(=O)c3csnn3)C2)C1 | 3%
CCn1c(SCC(=O)NCc2ccc(C)cc2)nnc1-c1ccncc1 | -3%
CC(=O)Nc1ccc(NC(=O)Oc2ccccc2)cc1 | -2%
COc1ccc(C)cc1S(=O)(=O)N(CC(=O)O)c1ccccc1 | 5%
O=C(Cc1cccs1)Nc1nc2c(s1)CCCC2 | -18%
Nc1cc(C2CCCC2)nn1-c1ccccc1 | 5%
COc1cccc(C2c3c(oc4ccccc4c3=O)C(=O)N2CCCN2CCOCC2)c1 (stereo not drawn) | 4µM*[single pt active]
COC(=O)c1nnn(-c2nonc2N)c1CN1CCc2ccccc21 | -3%

Compound activity deposited in PubChem BioAssay by National Center for Advancing Translational Sciences (NCATS).
